# MLL AF4-AF9 inh = inhibitors of human MLL-AF4/AF9 interaction; inhibition, % at 10 µM; AlphaScreen, biotin-AF4 peptide binding to FLAG-AF9; 0.47% of 350,000 active; P42568;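 active means every replicate reaching a set inhibition limit, whatever the replicate mean, cut at about 25% in these data; inconclusive means mean inhibition reaches that limit but some replicates miss it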;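 further: 0% = plate neutral control median and 100% = total signal loss; the record names both 10 and 1 µM as test concentration; the first replicate is given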
# Target sequence (P42568 whole entry, looked up): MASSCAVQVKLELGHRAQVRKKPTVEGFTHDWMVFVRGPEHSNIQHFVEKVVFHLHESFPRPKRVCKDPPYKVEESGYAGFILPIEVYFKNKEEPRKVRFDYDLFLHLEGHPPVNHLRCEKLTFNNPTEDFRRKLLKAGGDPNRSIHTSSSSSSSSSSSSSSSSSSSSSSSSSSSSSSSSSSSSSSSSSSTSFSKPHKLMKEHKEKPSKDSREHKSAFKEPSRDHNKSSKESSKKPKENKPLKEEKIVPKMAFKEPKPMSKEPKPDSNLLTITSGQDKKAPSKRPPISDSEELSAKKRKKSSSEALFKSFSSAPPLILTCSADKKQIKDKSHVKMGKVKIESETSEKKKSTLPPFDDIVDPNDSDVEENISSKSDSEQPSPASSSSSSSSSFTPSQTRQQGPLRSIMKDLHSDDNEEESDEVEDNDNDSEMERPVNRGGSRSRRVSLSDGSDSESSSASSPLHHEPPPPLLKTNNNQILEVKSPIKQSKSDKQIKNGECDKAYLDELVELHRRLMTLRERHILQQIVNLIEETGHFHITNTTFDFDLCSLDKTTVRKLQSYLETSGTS
# Vif A3G = HIV-1 Vif–A3G interaction blockers – biochemical, TR-FRET, GST-Vif 1-94, biotin-A3G peptide, dose response retest, primary screen (AID 1117319) | TR-FRET GST-Vif / biotin-A3G peptide binding; higher % means a stronger effect; test concentration not given here; strong numbers were not always called active | one-dose inhibition, %; IC50 in µM for titrated hits | 0.57% of 260,000 active;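 active means above the screen mean plus three standard deviations and confirmed in dose response; inconclusive means results disagree or hit not tested in dose response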;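 further: Vif residues 1-94 fused to GST binding biotinylated APOBEC3G peptide 110-148; 0% = full assay without inhibitor and 100% = GST in place of GST-Vif; retest series ran down from 100 µM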
# rRNA inh HTS = inhibits bacterial ribosomal RNA function over humanized ribosomes; 1.6% of 350,000 active; E. coli WT GFP vs humanized-ribosome RFP mutants, fluorescence, 24 h; hits give low values; DMSO median 0, no signal -100; GFP signal change (wild-type ribosome), % (no concentration beside the values);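 active means significant combined selectivity score with lowered wild-type GFP, culture density cut under 30%, mutant RFP and density less affected; inactive means any of these conditions unmet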; further: one replicate is shown; some compounds called inactive have numbers as strong as hits
# FGF22 binding = binders of recombinant human FGF22 by thermal shift; 1.5% of 340,000 active; Q9HCT0; calls only at 9.99 µM; SYPRO orange fluorescence; percent of sucrose octasulfate shift, DMSO zero; AID 651658;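 active means melting point raised past a set limit in the mean and every replicate; inconclusive means no clear call; three in four hits are not shown here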
# Target sequence (Q9HCT0 whole entry, looked up): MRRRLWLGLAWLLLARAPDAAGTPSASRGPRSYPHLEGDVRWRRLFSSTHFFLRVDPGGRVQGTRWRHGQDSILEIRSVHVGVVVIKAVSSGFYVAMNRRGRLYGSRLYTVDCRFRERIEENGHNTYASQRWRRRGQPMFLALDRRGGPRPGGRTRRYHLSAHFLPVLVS
# HNF4A DNA FP = change in binding of human HNF4 alpha to DNA; activity change, % at 10 µM; P41235; HNF4a-FITC DNA binding, fluorescence polarization, 1 h; 0.3% of 360,000 active; in the data active means activity change above about 30%, passing the limit was not always enough;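 further: controls were the assay level and a saturating level of protein; the project sought stronger binding though the title names inhibitors; some compounds called inactive have numbers as strong as hits; positive values seem to mean higher polarization but the record does not say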
# E coli growth = blocks Escherichia coli growth; 0.21% of 330,000 active; OD600, 23 h; hits give low values; AID 1053175; OD600 absorbance (no concentration beside the values);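 active means OD600 absorbance below the run mean of sample wells minus 3.6 SD, in any replicate, cut at about 0.56 in these data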;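 further: stock transfer was 300 nL into about 60 µL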
# ALR inh = blocks human ALR sulfhydryl oxidase activity; 3.8% of 290,000 active; inhibition, % (concentration not given with the values); purified ALR, DTT oxidation, H2O2 HRP-luminol luminescence; P55789;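 active means mean and each replicate at 75% or more; inconclusive means only one of the two met; inactive means neither met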;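 further: stock transfer was 7.5 nL into about 7.5 µL; 0% = neutral wells and 100% = wells with inactivated enzyme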
# Target sequence (P55789 whole entry, looked up): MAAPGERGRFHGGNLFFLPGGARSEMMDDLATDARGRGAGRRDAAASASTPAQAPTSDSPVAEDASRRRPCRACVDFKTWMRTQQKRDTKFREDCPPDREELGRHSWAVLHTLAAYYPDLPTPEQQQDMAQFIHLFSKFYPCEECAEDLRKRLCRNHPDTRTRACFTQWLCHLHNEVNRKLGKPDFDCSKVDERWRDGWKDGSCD
# rRNA inh HTS OD600 = further read-out of rRNA inh HTS, marked with its call; OD600 change, %; measured here: OD600 growth;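 optical density of the mix in the first replicate; 0 = DMSO median and -100 = no signal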
# rRNA inh HTS RFP = recorded beside rRNA inh HTS, whose call it bears; RFP signal change, %; measured here: RFP humanized mutant strains;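 first replicate; 0 = DMSO median and -100 = no signal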
# Starred values were filed as active, the others as inactive; i = inactive; ? = inconclusive; · = not tested or not shown; & = joins results of further samples. Only part of the results is shown (hit frequency here may not be typical).
# The opening five entries as a preview:
SMILES,MLL AF4-AF9 inh,Vif A3G,rRNA inh HTS,rRNA inh HTS OD600,rRNA inh HTS RFP,FGF22 binding,HNF4A DNA FP,E coli growth,ALR inh
Cc1ccc(NC(=O)COC(=O)CCc2nc3ccccc3c(=O)[nH]2)c(Br)c1,-1.6,-12%,18,11,-0.5,i,-4.1,0.71,3
CCCN1C[C@@H](C)[C@@H](OC)CN(C)C(=O)c2ccc(NC(=O)Nc3cccc(F)c3)cc2OC[C@@H]1C,5.8,·,-2,-7,3.2,i,·,·,·
COc1ccc(-c2cc(C(F)(F)F)nc(SCC(=O)NCCCN3CCOCC3)n2)cc1,1.1,17%,0,-15,-2.4,·,-3.4,0.71,-1
CC1CCC(CC(=O)O)(C(=O)O)CC1 (stereo not drawn),3.1,-9%,18,10,-0.5,i,5.4,0.66,·
CCN(C(=O)COC(=O)C1CCN(S(=O)(=O)c2ccc(C)c(C)c2)CC1)C1CCCCC1,-0.5,0%,-10,-27,4.5,i,-4.4,0.64,·

# Main list, repeating the preview:
SMILES,MLL AF4-AF9 inh,Vif A3G,rRNA inh HTS,rRNA inh HTS OD600,rRNA inh HTS RFP,FGF22 binding,HNF4A DNA FP,E coli growth,ALR inh
Cc1ccc(NC(=O)COC(=O)CCc2nc3ccccc3c(=O)[nH]2)c(Br)c1,-1.6,-12%,18,11,-0.5,i,-4.1,0.71,3
CCCN1C[C@@H](C)[C@@H](OC)CN(C)C(=O)c2ccc(NC(=O)Nc3cccc(F)c3)cc2OC[C@@H]1C,5.8,·,-2,-7,3.2,i,·,·,·
COc1ccc(-c2cc(C(F)(F)F)nc(SCC(=O)NCCCN3CCOCC3)n2)cc1,1.1,17%,0,-15,-2.4,·,-3.4,0.71,-1
CC1CCC(CC(=O)O)(C(=O)O)CC1 (stereo not drawn),3.1,-9%,18,10,-0.5,i,5.4,0.66,·
CCN(C(=O)COC(=O)C1CCN(S(=O)(=O)c2ccc(C)c(C)c2)CC1)C1CCCCC1,-0.5,0%,-10,-27,4.5,i,-4.4,0.64,·
COC(=O)c1cc(NC(=O)c2cc(-c3ccccc3Cl)oc2C(F)(F)F)ccc1N1CCOCC1,·,?,-32*,-8.2*,13*,i,-0.1,0.68,·
COc1ccc(CCNC(=O)c2cc(C3CC3)on2)cc1OC,2.2,-5%,-5,-7,-6.4,i,2.6,0.7,4
O=C(CSc1nc(-c2ccccc2)nc2c1CCCC2)N1CCOCC1,·,1%,·,·,·,·,-4.1,0.74,-5
C[C@@H]1CN([C@@H](C)CO)S(=O)(=O)c2ccc(C#CC3(O)CCCC3)cc2O[C@@H]1CN(C)C(=O)c1ccccc1,0.3,·,-4,-7,3.2,i,·,·,·
CC1CCN(C(=S)NC2CCCCC2)CC1,·,6%,·,·,·,·,-4.7,0.7,-2
O=C(Nc1cccc(F)c1)C1CCN(S(=O)(=O)c2cnc[nH]2)CC1,-11,-4%,-19,-31,-7.2,i,0.3,0.67,-6
COc1ccc(OCC(=O)Nc2ccc(N3CCOCC3)cc2)cc1,·,25%,3,11,-0.9,·,3.5,0.71,-15
CN(Cc1c(F)cccc1Cl)C(=O)C1=CC=CN2CCS(=O)(=O)N=C12,-4.7,·,10,7,0.4,i,1.5,0.68,-1
CCN(CC)c1cccc(OC(=O)c2cccnc2Cl)c1,2.0,·,-4,-13,0.2,i,3.6,0.68,62
C[C@H]1CN([C@@H](C)CO)S(=O)(=O)c2ccc(C#CCN(C)C)cc2O[C@@H]1CN(C)S(C)(=O)=O,-1.4,·,2,6,-3.7,i,·,·,·
Cc1cc(S(=O)(=O)NC2CCCCC2)ccc1-n1cnnn1,-2.8,0%,9,0,-0.9,i,2.0,0.71,·
Cc1nn(-c2ccccc2)c(C)c1-c1nnc(C(F)(F)F)o1,-1.3,4%,5,-2,0.8,i,-1.1,0.63,·
COCC(=O)N(C)C[C@@H]1Oc2ncc(C#CC3(O)CCCC3)cc2C(=O)N([C@H](C)CO)C[C@H]1C,-1.8,·,6,1,-0.8,i,·,·,·
C[C@H]1CCCCO[C@@H](CN(C)C(=O)CCC(F)(F)F)[C@@H](C)CN([C@@H](C)CO)C(=O)c2cc(NS(=O)(=O)c3ccccc3)ccc2O1,1.1,·,-1,-8,2.1,i,·,·,·
COc1ccc(NC(=O)[C@H](C)NC(=O)[C@@H]2Cc3ccccc3CN2C(=O)OC(C)(C)C)cc1,-0.4,·,-1,-10,-3.5,·,3.0,0.7,-6
O=C(COC(=O)Cc1cccc(C(F)(F)F)c1)NC(=O)NC1CCCC1,1.8,·,·,·,·,i,-4.1,0.68,-2
C/C=C/c1cnc2c(c1)C(=O)N([C@@H](C)CO)C[C@@H](C)[C@@H](CN(C)S(=O)(=O)c1ccccc1F)O2,-9.6,·,2,8,-3.2,i,·,·,·
COc1ccc(CCNC(=O)c2ccccc2OCc2ccccc2)cc1,1.5,8%,-45,-75,-9.8,i,3.5,0.68,-36
CNC(=S)/N=C/NOCc1ccc(Cl)cc1Cl,-14,1%,-57,-80,-23,i,-3.0,·,9
Cc1ccc2nc(SCC(=O)N(CC(C)C)c3c(N)n(Cc4ccccc4)c(=O)[nH]c3=O)[nH]c2c1,27*,·,-9,-14,-4.9,i,-3.0,0.69,-1

# (continued)
SMILES,MLL AF4-AF9 inh,Vif A3G,rRNA inh HTS,rRNA inh HTS OD600,rRNA inh HTS RFP,FGF22 binding,HNF4A DNA FP,E coli growth,ALR inh
Cc1nnsc1-c1nnc(SCC(=O)c2ccc(C#N)cc2)n1C1CC1,-1.4,·,-1,-3,1.1,i,3.7,0.68,29
O=C(c1ccc(Cl)cc1)c1cnc2ccccn12,·,0%,·,·,·,·,1.4,0.68,1
Cc1cc(-n2c(C)cc(C(=O)COc3ccc([N+](=O)[O-])cc3)c2C)no1,2.7,-1%,8,12,-4.3,i,2.7,0.73,-21
COc1ccc(CNC(=O)CN(C)S(=O)(=O)c2ccccc2)cc1,-1.0,-2%,6,5,-4.7,i,-2.5,0.66,3
C[C@H]1CN([C@@H](C)CO)C(=O)c2cccc(NC(=O)Nc3ccc(C(F)(F)F)cc3)c2O[C@@H]1CN(C)Cc1ccccc1,-1.1,·,4,10,1.1,i,·,·,·
CC(C)Oc1ccc(Oc2ccc(C(F)(F)F)cn2)cc1,·,-3%,·,·,·,·,-2.3,0.72,0
CN(C)CCNC(=O)Nc1ccc(F)cc1F,-1.8,7%,13,1,-4.4,i,-0.3,0.69,·
CC1CCN(CC[C@H]2CCCN2S(=O)(=O)c2cccc(O)c2)CC1,0.0,·,·,·,·,i,1.9,·,-2
Cc1nc(Nc2ccccc2F)c2oc3ccccc3c2n1,-1.8,-5%,-11,7,-1.5,i,-0.8,0.7,14
O=C(NCC[C@@H]1CC[C@@H](NC(=O)C2CCC2)[C@@H](CO)O1)Nc1ccc(Cl)cc1,1.9,·,-14,-16,1.3,i,·,·,·
Cc1ccc(/C=C2/SC(=S)N(CC(=O)Nc3ncc(Cc4ccc(C)cc4)s3)C2=O)cc1,·,-14%&10%,·,·,·,·,0.5,0.8,4
C[C@@H]1CCCCO[C@H](CN(C)S(=O)(=O)c2ccc(F)cc2)[C@@H](C)CN([C@H](C)CO)C(=O)c2cc(NS(=O)(=O)c3cn(C)cn3)ccc2O1,-13,·,2,9,-1.8,i,·,·,·
O=C(N[C@H]1CC[C@@H](CCNS(=O)(=O)Cc2ccccc2)O[C@@H]1CO)c1cnccn1,-17,·,0,5,-1.7,i,·,·,·
CSc1nc(C)c(CCOC(=O)c2cccc(C)c2)c(=O)[nH]1,·,0%,·,·,·,·,3.0,0.69,-25
O=C(Nc1nc(-c2ccccn2)cs1)c1ccco1,-3.8,-8%,10,10,4.7,i,-3.7,0.65,57
Fc1ccc(Nc2nc(-c3ccncc3)nc3ccccc23)cc1,·,·,·,·,·,·,9.7,0.74,-1
NCCn1c(-c2ccccc2)cc(C(=O)O)c1-c1ccccc1F,7.1,·,4,11,-2.8,i,1.8,0.68,26
CCc1ccc(NC(=O)N(C2CCC(C)CC2)C2CCN(C(C)=O)CC2)cc1 (stereo not drawn),·,19%,·,·,·,·,-0.1,0.63,-5
O=C(C[C@H]1C[C@H](C(=O)N2CCOCC2)[C@@]2(CCC3CCCC3)c3[nH]c4cc(-c5ccco5)ccc4c3CCN2C1=O)NCc1cccc(C(F)(F)F)c1,2.2,4%,2,18,14,·,3.3,0.7,·
CCCCCCCC(=O)C(C)C(=O)N(C)[C@H](Cc1ccc(OC)cc1)C(=O)N(C)[C@H](C(N)=O)C(C)C (stereo partly drawn),2.3,·,-5,-2,16,i,-3.9,0.66,·
COC(=O)[C@H](C)NC(=O)Nc1ccc(OC(F)(F)F)cc1,·,2%,·,·,·,·,1.6,0.76,1
O=C(CSc1ccccc1)N1CCC(N2CCC(C(=O)N3CCCC3)CC2)CC1,2.0,6%,-1,12,0.5,i,3.3,0.74,-1
CC(C)c1ccc(C(O)P(=O)(OC2CCCCC2)OC2CCCCC2)cc1 (stereo not drawn),·,7%,-2,-4,0.3,i,5.2,0.68,-3
CCN(Cc1cnn(C)c1)C(=O)c1cc(COc2cc(C)c(Cl)c(C)c2)on1,0.3,·,-54,-78,-15,i,-18,0.66,·
O=C(CN1C(=O)CCC1=O)Nc1ccc(Cc2ccc(NC(=O)CN3C(=O)CCC3=O)cc2)cc1,1.4,-12%,15,17,-1.5,i,3.8,0.63,-2

# Going on with the list:
SMILES,MLL AF4-AF9 inh,Vif A3G,rRNA inh HTS,rRNA inh HTS OD600,rRNA inh HTS RFP,FGF22 binding,HNF4A DNA FP,E coli growth,ALR inh
CCOc1ccccc1Oc1coc2cc(O)ccc2c1=O,·,4%,·,·,·,·,-2.6,0.8,2
C[C@H]1CN([C@@H](C)CO)C(=O)c2cccc(NS(=O)(=O)c3ccc(Cl)cc3)c2O[C@@H]1CN(C)C,-6.1,·,2,-2,1.9,i,·,·,·
COC(=O)Cn1c(CN2CCN(c3ccccc3F)CC2)nc2c1c(=O)n(C)c(=O)n2C,-1.8,·,2,4,-5.0,i,2.2,0.77,·
O=S(=O)(O)CCN1CCOCC1,·,?,·,·,·,·,-2.8,0.79,4
CC=Cc1ccc2n(c1=O)C[C@@H]1[C@@H](CO)[C@H](C(=O)N3CCc4ccccc4C3)[C@H]2N1CC (mixture of isomers),0.2,·,-3,-7,-2.8,i,·,·,·
CCCc1c(-c2ccccc2F)ncn1CCc1ccccc1OC,7.8,·,-66,-78,-27,i,4.0,·,·
O=C1C=C(c2ccc(C(=O)O)c(Cl)c2)C[C@@H](c2ccc3c(c2)OCO3)C1,-5.5,·,-8,-3,6.2,i,3.8,·,2
CN(N=Nc1ccc([N+](=O)[O-])cc1)c1ccccc1,6.6,?,19,6,3.7,i,-130,·,-26
CN(CC(=O)Nc1ccc(F)cc1)C(=O)COC(=O)Cc1c(F)cccc1Cl,-9.7,5%,-2,-2,0.0,i,1.5,0.67,3
Cc1cccn2c(=O)c3cc(C(=O)N4CCN(C(=O)c5ccco5)CC4)n(C)c3nc12,·,-2%,·,·,·,·,-1.4,0.65,28
CCOC(=O)[C@H]1[C@H]2COc3ccc(OC)cc3[C@@H]2N2C(=O)c3cc(OC)c(OC)cc3NC(=O)[C@@]12C,2.9,·,1,-1,-3.2,i,0.8,·,·
CCc1c(-c2ccccc2)ncn1Cc1cccc(-c2ccccc2)c1,-1.2,·,-29,-57,7.3,·,-5.8,·,·
CC(C)NC(=O)Nc1cccc2c1O[C@H](CN(C)S(=O)(=O)c1ccc(F)cc1)[C@@H](C)CN([C@H](C)CO)C2=O,-3.4&-2.5,-1%,0&2,-3&10,0.9&-1.7,i,-0.2,0.69,·
